Compound activity deposited in PubChem by Center for Chemical Genomics, University of Michigan.
HIV TAR-Tat – HIV-1 TAR-Tat binding disruption. AID 1259389. 0.6% of 100,000 active. HIV-1 TAR RNA, Tat peptide displacement FRET; stronger effect = higher value. z-score (concentration not given with the values);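 also: score is relative to mean and SD of negative controls; some compounds called inactive have numbers as strong as hits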
CDC25B-CDK2 inh – human CDC25B-CDK2/CyclinA binding inhibition. P30305+P24941. HTRF CDC25B-CDK2/CyclinA binding, anti-His/anti-Flag; stronger effect = higher value. z-score (concentration not given with the values). 0.72% of 94,000 active;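 also: score is relative to mean and SD of negative controls; strong numbers were not always called active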
The depositor's hits bear a star; · = not tested or not shown.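 The calls were made as follows: active = z-score from 3 up in half or more of its runs; inactive = the rest.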 The order is random. About 0.97% of those tested had a hit in this group.

SMILES | HIV TAR-Tat | CDC25B-CDK2 inh
C=CCNC(=O)c1cnn2c(C(F)F)cc(-c3ccc(C)cc3)nc12 | 3 | -1.2
COc1ccc(S(=O)(=O)NCCc2csc3nc(-c4cccs4)nn23)c(OC)c1 | -0.11 | ·
COc1ccc(S(=O)(=O)NCc2nc(-c3ccc(C(C)(C)C)cc3)no2)cc1 | 1.2 | 1.8
Cc1cc(O)cc(=O)n1Cc1ccc2c(c1)OCO2 | -1.3 | -1.5
O=S(=O)(Nc1cccc(-c2ccc(N3CCCC3)nn2)c1)c1cccc(F)c1 | 1.1 | ·
Nc1ccc2nn(-c3ccccc3)nc2c1 | -0.08 | -3.4
Cc1c(C(=O)N2CCOCC2)oc2c1-c1nn(CC(=O)NC(C)C)cc1CC2 | 3 | ·
CCCC(O)c1nc2ccccc2n1CCc1ccccc1 (stereo not drawn) | 0.81 | -0.7
CCCCNC(=O)C1CCN(c2nnc(N3CCCCC3=O)s2)CC1 | 2.4 | ·
Cc1cc2c3c([nH]c2cc1S(=O)(=O)NCCN1CCC(C)CC1)CC(C)(C)CC3=O | 0.7 | ·
COc1cc2c(cc1OC)C(C)N(C(=O)c1sc(-c3cnccn3)nc1C)CC2 (stereo not drawn) | · | -1.6
Cc1ccc(S(=O)(=O)CC(CN2CCCCC2)N2CCCCC2)cc1 (stereo not drawn) | · | -0.13
Cc1ccc(S(=O)(=O)[C@H]2CS(=O)(=O)C[C@@H]2N2CCN(C/C=C/c3ccccc3)CC2)cc1 | 0.64 | -0.46
N=C1C(c2nc3ccccc3s2)=C(O)CN1c1cccc(O)c1 | -5.4 | -1.1
COc1ccc(-c2csc3ncnc(NC4CC4)c23)cc1 | -0.2 | ·
Cc1ccc(S(=O)(=O)c2ccc(-c3ccccc3)cc2)cc1 | 1.1 | -0.22
CC1CCCN(CCCNS(=O)(=O)c2cc(Br)cc3c2N(C(=O)C2CC2)CC3)C1 (stereo not drawn) | 0.19 | 0.53
COc1ccc(C(=O)CC(=O)c2ccc[nH]c2=O)cc1 | 0.66 | -1.4
CC(C)CCOc1ccc(C(C)(O)C(CN2CCOCC2)c2ccccc2)cc1 (stereo not drawn) | 2.8 | ·
O=C1c2cccnc2C(=O)N1Cc1ccc(S(=O)(=O)Nc2ccc(Cl)cn2)cc1 | 0.47 | ·
O=C(NC1CCCC1)C1CCN(c2ccc3cc(S(=O)(=O)N4CCCCC4)ccc3n2)CC1 | 1.3 | ·
CC(C)c1ccc2oc3nc(N)c(C(=O)O)cc3c(=O)c2c1 | 0.96 | ·
O=C(NCc1ccco1)C1CCN(S(=O)(=O)c2ccc3[nH]c(=O)oc3c2)CC1 | 0 | ·
COc1ccc(Nc2nc(Nc3ccc(Cl)cc3)c3cnn(C)c3n2)c(OC)c1 | -1 | ·
CCC(C)Nc1oc(/C=C/c2cccc(OC)c2)nc1C#N (stereo not drawn) | 1.9 | -1.2

At a glance, some entries already given:
SMILES | HIV TAR-Tat | CDC25B-CDK2 inh
COc1ccc(Nc2nc(Nc3ccc(Cl)cc3)c3cnn(C)c3n2)c(OC)c1 | -1 | ·
CCC(C)Nc1oc(/C=C/c2cccc(OC)c2)nc1C#N (stereo not drawn) | 1.9 | -1.2

More records follow.
SMILES | HIV TAR-Tat | CDC25B-CDK2 inh
CCC1Sc2ccc(S(=O)(=O)CCC(=O)NCc3cccs3)cc2NC1=O (stereo not drawn) | 0.44 | ·
Cc1cccc(CSc2nc3nc[nH]c3c(=O)[nH]2)c1 | 0.67 | 0.27
COc1cccc(-c2nc(=S)c3c([nH]2)Oc2ccccc2C3)c1OC | -0.97 | -2.3
CCCN1C(=O)c2[nH]nc(-c3c(C)cc(C)cc3O)c2C1c1cccc(O)c1 (stereo not drawn) | 1.6 | -0.63
O=C(Nc1cccnc1)C1CCN(c2ccc(-c3cccs3)nn2)CC1 | 0.56 | ·
CC(=O)N1c2ccc(S(=O)(=O)N3CCCCC3)cc2CC1C(=O)N1CCCCC1 (stereo not drawn) | 2.1 | ·
Cc1n[nH]c(C)c1S(=O)(=O)Nc1cccc(-c2ccc3ccccc3n2)c1 | -0.73 | ·
COc1ccc(-c2nc(COc3ccccc3-c3nnc(-c4ccccc4)o3)c(C)o2)cc1OC | 0.73 | ·
Cc1ccc(S(=O)(=O)NC2CCCCC2Nc2cc(C)ccc2C)cc1 (stereo not drawn) | 2.3 | -3.7
CN1N=C(c2coc3ccccc23)CC1(O)C(F)(F)F (stereo not drawn) | · | -1.7
COc1cc(Nc2nc3ccccc3c3nnc(C)n23)cc(OC)c1 | 0.28 | ·
CCOC(=O)c1ccnc(C(=O)OCC)c1 | 1.9 | ·
CCN1CCN(C(c2cccs2)C(C)NS(=O)(=O)c2ccc(Cl)cc2)CC1 (stereo not drawn) | · | -2.4
COc1cc(OC)cc(-c2nnc(Cc3ccc4c(c3)OCO4)o2)c1 | 1.7 | -0.36
Cc1cc(C)c2c(=O)cc(C(=O)NCc3ccc4c(c3)OCO4)oc2c1 | -0.77 | -0.31
Cc1cc(C)cc(NC(=O)C2CC3CSCN3C23C(=O)Nc2ccccc23)c1 (stereo not drawn) | -0.63 | ·
CCOC(=O)C1CCN(C(=O)c2cncc(-c3cccs3)c2)CC1 | · | -1.7
C=CCn1c(SCC(=O)N2CCOCC2)nc2sc3c(c2c1=O)CCC3 | · | 0.15
CC(=O)C1=C(C)OC(N)=C(C#N)C1c1cccs1 (stereo not drawn) | · | -1.6
CCOc1ccc(S(=O)(=O)n2cnc3ccccc32)cc1 | 2.5 | -1.7
O=C(CCc1nnc(C(=O)Nc2ccc(F)cc2)s1)Nc1ccc(F)cc1 | -0.95 | ·
CC(C)C1Cc2c(sc3nc(SCc4ccccc4)nc(N)c23)CO1 (stereo not drawn) | · | 1.8
N#Cc1c(NC(=O)C2Cc3ccccc3CN2S(=O)(=O)c2ccc(F)cc2)sc2c1CCCC2 (stereo not drawn) | 3.7 | -0.64
CCOC(=O)C1CCN(S(=O)(=O)c2ccc3c(c2)NC(=O)CCS3)CC1 | 1.2 | ·
CN(C(=O)CCNC(=O)Cn1cnc2ccccc2c1=O)c1ccc(F)cc1 | · | 0.14

A draw from above in order of number of heavy atoms, lowest first:
SMILES | HIV TAR-Tat | CDC25B-CDK2 inh
CCOC(=O)c1ccnc(C(=O)OCC)c1 | 1.9 | ·
Cc1ccc(S(=O)(=O)NC2CCCCC2Nc2cc(C)ccc2C)cc1 (stereo not drawn) | 2.3 | -3.7
CCC1Sc2ccc(S(=O)(=O)CCC(=O)NCc3cccs3)cc2NC1=O (stereo not drawn) | 0.44 | ·

(more compounds)
SMILES | HIV TAR-Tat | CDC25B-CDK2 inh
O=C(Cn1ccc2cc(S(=O)(=O)N3CCCCC3)ccc21)NCCN1CCOCC1 | 4.5 | ·
CC(CCc1ccccc1)NC(=O)CSc1nc(-c2ccccc2F)nc2cc(=O)[nH]n12 (stereo not drawn) | -0.12 | ·
O=C(Nc1ccc2c(c1)OCCO2)c1cnc2sc(N3CCOCC3)nn2c1=O | 0.64 | ·
c1ccc(Cc2nnc3sc(C4COc5ccccc5O4)nn23)cc1 (stereo not drawn) | 0.59 | 0.32
O=S(=O)(NCC1COc2ccccc2O1)c1ccc(Cl)cc1 (stereo not drawn) | 1.3 | 3.5
CCN(CC)C(=O)c1oc2ccccc2c1NC(=O)C1CCCC1 | 0.68 | ·
Cc1nn(Cc2ccc(F)cc2Cl)c(=O)c2noc(C)c12 | -2.4 | ·
C=CCn1c(SCC(=O)N2CCc3ccccc32)nnc1-c1cc2cccc(OC)c2o1 | 1 | ·
O=C(CN1CCOCC1)Nc1cc(C(F)(F)F)cc(NC(=O)CN2CCOCC2)c1Cl | · | -2.8
CCCN1CCN(C(=O)Cn2cnc3oc(C)c(C)c3c2=O)CC1 | 0.72 | ·
CCOC(=O)Cn1c(=O)c(OCC)nc2cnccc21 | 0.25 | -0.71
O=C(CSC1=NCCN1)C1COc2ccccc2O1 (stereo not drawn) | · | -1
Cc1cc(C)c(-c2ccn(C(=O)c3snnc3C)n2)[nH]1 | · | -1.1
CN(C)CCNC(=O)C1CCCN1c1nnc(N2CCCC2=O)s1 (stereo not drawn) | 2 | -1.6
CC1CCN(S(=O)(=O)c2ccc3c(c2)N(CC(=O)NC(=O)C2CCNCC2)C(=O)CS3)CC1 | 0.4 | -1.3
COC(=O)c1ccc2c(=O)[nH]c3c(C(=O)N4CCOCC4)sc(=S)n3c2c1 | 1 | 0.49
COc1ccc(NS(=O)(=O)c2cc(-c3cnc(C)o3)ccc2OC)cc1OC | 0.66 | ·
Oc1ccc2ccccc2c1N=Nc1ccc(N2CCCCC2)cc1 | · | -0.93
Cc1n[nH]c(C)c1CCc1nc2c3ccccc3nc(NCc3ccccc3Cl)n2n1 | 0.7 | -1
Cc1ccc(C)c(OCc2nc(-c3ccccc3)no2)c1 | 0.19 | -0.72
O=C1CC(NC2CCN(c3ncc(Cl)cc3Cl)CC2)C(=O)N1c1ccc(F)cc1 (stereo not drawn) | 1.1 | -0.44
Cc1nc2c(c(NC3CCCCC3)n1)CCC2 | 0.49 | -1.4
O=C(NCc1cccs1)Nc1csc([N+](=O)[O-])c1 | · | -1.8
Cn1c(=O)c2cc(C(=O)NCCN3CCOCC3)sc2c2ccc(Cl)cc21 | 0.31 | -0.28
Cn1c2c(c(=O)[nH]c1=O)C(c1ccc(-c3ccccc3)cc1)C1=C(N2)c2ccccc2C1=O (stereo not drawn) | -1.6 | -2
Other compounds follow:
SMILES | HIV TAR-Tat | CDC25B-CDK2 inh
Cn1ncc2c(N3CCN(Cc4ccccc4)CC3)ncnc21 | 0.39 | ·
CCCCNc1nc2c(c(=O)[nH]c(=O)n2C)n1CC(C)C | -0.13 | -1.3
O=S(=O)(Nc1ccc2c(c1)N(S(=O)(=O)c1ccccc1)CCC2)c1ccccc1F | 0.25 | ·
COc1ccc(C2CC(=O)N3CN(C)CSC3=C2C#N)c(OC)c1 (stereo not drawn) | -1.3 | 5.2*
CN1CCSc2ccc(C(=O)NCCN3CCOCC3)cc21 | -0.65 | -3.6
CCCCC(=O)Nc1nonc1-c1ccc(Br)cc1 | 0.62 | 0.28
N#C/C(=C\Nc1ccc(F)cc1)S(=O)(=O)c1cccs1 | · | -0.67
O=C(CSc1nc2ccccc2n1Cc1ccccc1)N/N=C/c1c(O)ccc2ccccc12 | · | -0.72
CSc1nnc(NC(=O)C(=O)c2c[nH]c3ccccc23)s1 | 4.7 | -0.78
Cc1cc(C)c(-c2c(NCCc3sccc3C)c(=O)c2=O)cc1C | 0.72 | ·
COc1cccc2c(=O)c(NC(=O)NCC3CCCO3)c[nH]c12 (stereo not drawn) | -0.41 | -1.8
O=C(Cn1c2ccccc2n2ncnc12)c1ccc(-c2ccccc2)cc1 | 0.74 | -1.3
Cc1cc(N2CCN(C3CCCCC3)CC2)nc2cc(O)ccc12 | · | -1.6
C1=CC2C(C1)C1CC(NC3=NCCS3)C2C1 (stereo not drawn) | · | -1.1
Cc1cccc(Oc2coc3cc(OCC(=O)OCc4ccccc4)ccc3c2=O)c1 | 2.1 | -4.9
O=C(O)C(c1ccccc1)n1cccc1 (stereo not drawn) | · | -0.62
CC(=O)N1c2ccc(S(=O)(=O)N(C)CC(=O)N3CCN(c4ccccn4)CC3)cc2CC1C (stereo not drawn) | -0.27 | ·
CCOC(=O)C(C(=O)OCC)C1OC(=O)c2cc3c(cc21)C(=O)OC3C(C(=O)OCC)C(=O)OCC (stereo not drawn) | · | -0.76
N#Cc1c(OCC(F)(F)F)ccc(Sc2ncccn2)c1OCC(F)(F)F | · | -1.7
COc1ccc(-n2nc3c(c2NC(=O)C(C)(C)C)CS(=O)(=O)C3)cc1 | 0.05 | ·
COc1ccc(OC)c(NC(=O)CCS(=O)(=O)c2ccc3c(c2)CC(=O)N3C)c1 | 0.64 | ·
Cc1nc(-c2ccc(S(=O)(=O)NCc3nc(-c4ccc(C(F)(F)F)cc4)no3)s2)cs1 | · | -1.7
c1ccc2oc(-c3ccc(-c4nc5ccccc5o4)cc3)nc2c1 | -0.68 | -1.2
COCCN1C(=O)C(=O)/C(=C(\O)c2ccc3c(c2)CC(C)O3)C12C(=O)N(C)c1ccccc12 (stereo not drawn) | 1.5 | -0.58
CN(C)CCNC(=O)c1nn(C)c2c1COc1ccccc1-2 | 0.77 | 1

As entered above.
In CDC25B-CDK2 inh, CN1CCSc2ccc(C(=O)NCCN3CCOCC3)cc21 has -3.6
In CDC25B-CDK2 inh, Cc1cc(N2CCN(C3CCCCC3)CC2)nc2cc(O)ccc12 has -1.6
In CDC25B-CDK2 inh, N#Cc1c(OCC(F)(F)F)ccc(Sc2ncccn2)c1OCC(F)(F)F has -1.7
In CDC25B-CDK2 inh, O=C(Cn1c2ccccc2n2ncnc12)c1ccc(-c2ccccc2)cc1 has -1.3

(more compounds)
SMILES | HIV TAR-Tat | CDC25B-CDK2 inh
NNC(=O)CSc1cc(C(F)(F)F)nc2ccccc12 | · | -0.55
O=c1c2c(n3cnnc3n1CCc1ccccc1)-c1ccccc1CC21CCCCC1 | 0.07 | -3.4
Cc1cc(=O)nc2c3ccccc3n(C(C)C(=O)NCc3ccccn3)n12 (stereo not drawn) | -0.96 | -0.09
COc1ccc(CNC(=S)NCCCO)cc1 | · | -2.8
O=C(Cn1c(=O)oc2cc(S(=O)(=O)N3CCCC3)ccc21)N1CCCC1 | · | -3.4
CCN1CCN(c2sc(S(=O)(=O)CC)nc2S(=O)(=O)c2ccc(C)cc2)CC1 | 2 | 0.33
COc1ccccc1N1CCN(C2CCN(Cc3ccccn3)CC2)CC1 | 1.4 | 0.44
Nc1ccc(S(N)(=O)=O)cc1 | -0.59 | ·
CCc1nnc(NC(=O)CSc2nc3c(c(=O)n2CC)SCC3)s1 | -0.28 | 1.5
CCS(=O)(=O)c1ccc(O)c(NC(=O)CSCC(=O)O)c1 | · | -1.7
